Screens from PubChem BioAssay.
VCAM-1 up: enhancers of VCAM-1 display on endothelial cells, cell-based, plate reader, pooled HUVEC, TNFa stimulus (AID 455); HUVEC TNFa-induced VCAM-1 immunofluorescence, plate reader; numbers were filed only for top-ranked candidate wells; augmentation, % at 5 µM; 10,000 tested, 0.2% active;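 active = a compound raising TNF-alpha-driven VCAM-1 surface staining, with its hit status upheld on visual or statistical review; inactive = the rest, including hits rejected on review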;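 also: 0% = TNFa with vehicle and 100% = strongest image-checked hit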
Proteasome disasm: blocks ATP-dependent breakdown of the yeast 26S proteasome | AID 751 | 24,000 tested, 0.2% active | inhibition of disassembly, % (no concentration beside the values) | anti-FLAG beads, GFP-proteasome disassembly, flow cytometry;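 active = above 40%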;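 also: plate controls were ATP control with full disassembly for no effect and ATP-gamma-S intact proteasomes for full effect; higher percent means more bead fluorescence retained so stronger block of disassembly; stock transfer was 100 nL into about 10 µL; wells with too few beads may also be inconclusive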
Numbers without * were called inactive; i = inactive; . = not tested or not shown.

Each structure is followed by: VCAM-1 up, Proteasome disasm
> COc1cc(-c2nnc(SCC(=O)N3CCCC3)o2)cc(OC)c1OC
    ., 0.1
> Cc1nn(C)c(C)c1CN(C)C(=O)c1cc2n(n1)C(C(F)(F)F)CC(c1cccs1)N2 (stereo not given)
    ., 0.6
> Cn1c(=O)c2c(nc(NCCCO)n2CCc2ccccc2)n(C)c1=O
    i, 1.9
> N=c1c[n+](N2CCOCC2)[n-]o1
    i, 0.5
> CCCC(=O)Nc1ccccc1-c1nnn(CC(=O)Nc2ccc(OC)cc2)n1
    i, -3.1
> Cc1c(C(=O)O)c(-c2ccccc2)nn1-c1ccccc1
    i, -1.8
> COC(=O)CS(=O)(=O)c1cc(Br)cc2c1N(C(C)=O)CC2
    ., -2.5
> COc1ccc(-n2nc(C(=O)Nc3ccc4c(c3)OCO4)c3c4ccccc4n(C)c3c2=O)cc1
    i, -0.4
> Cc1ccc(-n2ncc3c(=O)[nH]c(SC(C)C)nc32)cc1
    i, 0.3
> CCCCN(CCCC)S(=O)(=O)c1ccc(C(=O)Nc2nnc(CSC)o2)cc1
    ., 1.1
> CCOC(=O)N1CCC(NS(=O)(=O)c2cc3c(cc2Cl)NC(=O)CO3)CC1
    ., 0.1
> O=C1CSc2ccc(C(=O)N3CCN(c4ccccn4)CC3)cc2N1
    ., 2.2
> c1ccc(-n2c(Sc3cnccn3)nnc2-c2cccs2)cc1
    i, -1.6
> COc1ccc(C2C(C(=O)NCCN(C)C)c3cc(OC)c(OC)cc3C(=O)N2C)cc1OC (stereo not given)
    ., -0.8
> COc1cccc(N2C(=O)C3CCCN3C2c2ccc(Cl)cc2)c1 (stereo not given)
    ., 0.1
> COc1ccc(NC(=O)CSc2nc3c(c(=O)n2-c2ccc(F)cc2)SCC3)cc1
    i, -0.1
> CCc1nnc(NC(=O)CSc2nnc(Cc3ccccc3)n2-c2ccc(OC)cc2)s1
    i, 2.7
> Cc1cc(NC(=O)CSc2ccc(Cl)cc2)no1
    i, -0.1
> O=C(CCCn1c(=S)[nH]c2ccccc2c1=O)N1CCOCC1
    ., -0.7
> CCc1ccccc1-n1c(SCC(=O)N2CCCC2)nnc1-c1ccccn1
    i, -0.9
> COc1ccc2[nH]c(C(=O)O)c(CCNC(C)=O)c2c1
    ., 1.1
> COc1cccc(CN2CCN(C(=O)CC(C)C)CC2)c1
    i, 0.1
> CC1(C)Cc2ccccc2C(N)=C1C#N
    i, -0.9
> CCOCCCNC(=O)CCS(=O)(=O)Cc1ccc(C)cc1
    ., 0.6
> COc1ccc2nc3oc(C(=O)NC4CCN(Cc5ccccc5)CC4)cc3cc2c1
    i, 0.8
> CS(=O)(=O)Nc1ccc(S(=O)(=O)Nc2nccs2)cc1
    i, -1.4
> O=C(c1ccccc1)c1ccc2nc[nH]c2c1
    i, -0.5
> O=C1c2cccnc2C(O)N1C1CCCCC1 (stereo not given)
    ., -0.2
> CCOc1ccccc1C(=O)Nn1c(C2CCC2)nc2ccccc2c1=O
    i, 0.9
> Cc1cccc(NC(=O)COc2ccc(Br)cc2)n1
    i, 0.7
> COc1ccc(Cl)c(NCCC(=O)O)c1
    i, 2.3
> Cc1noc(C)c1S(=O)(=O)Nc1ccc(C(=O)NC2CCCCCC2)cc1
    ., 2.1
> COc1cc(NC(=O)C2CCCN2C(=O)C2CCC(C)CC2)cc(OC)c1OC (stereo not given)
    ., -0.2
> COc1ccc(Cn2c(CCC(=O)N3CCN(c4ccccn4)CC3)nc3ncccc3c2=O)cc1
    ., -1.2
> COc1ccccc1-n1nc(C(=O)O)c2ccccc2c1=O
    ., -2.4
> CCOC(=O)CNc1c(N2CCN(c3ccccn3)CC2)c(=O)c1=O
    ., -3.6
> NC(=O)c1cccc2c1C(=O)N(C1CCCCC1)C2
    i, -0.3
> CCc1nnc(NC(=O)Nc2ccc(OC)cc2)s1
    ., -2.4
> COc1ccc(F)cc1S(=O)(=O)NC(Cc1ccccc1)C(N)=O (stereo not given)
    ., -2.8
> O=C(Nc1cccc(-c2nnc(-c3ccccc3)o2)c1)C1CCCCC1
    i, -2.2

Next part, starting with the last two of the part before.
Each structure is followed by: VCAM-1 up, Proteasome disasm
> COc1ccc(F)cc1S(=O)(=O)NC(Cc1ccccc1)C(N)=O (stereo not given)
    ., -2.8
> O=C(Nc1cccc(-c2nnc(-c3ccccc3)o2)c1)C1CCCCC1
    i, -2.2
> COc1ccc(S(=O)(=O)NCCSCc2ccco2)cc1Cl
    i, -2.0
> CCOCCCNC(=O)Cn1cc2c(n1)CCCCC2
    i, -0.8
> O=C(c1cc(-c2ccco2)on1)N1CCOCC1
    ., -1.0
> COc1ccc2nc(N3CCC(C)CC3)c(C#N)cc2c1
    i, 2.7
> CC(C)Cn1c2c(c(O)c(C(=O)Nc3ncccc3O)c1=O)CCCC2
    i, 4.2
> NC(=O)NC(=O)CSc1cccc(C(F)(F)F)c1
    i, -1.7
> CCOc1ccc(Cn2nnc(C(=O)NCc3ccccc3)c2N)cc1
    ., -8.1
> COc1cccc(N(C(C)=O)c2nc(C)cc(C)c2C#N)c1
    i, -4.5
> COC(=O)c1cc2ccc(OC)c(OC)c2c(=O)s1
    ., 0.1
> Cn1c(=O)oc2cc(S(=O)(=O)NCCC(=O)NCCc3ccccc3)ccc21
    ., -0.6
> Cc1nn(C(C)C(=O)NCC2CCCO2)c(=O)c2cc3occc3n12 (stereo not given)
    ., -0.3
> C/C=C(\C)c1nnc(NC(=O)OCC)s1
    i, -5.4
> COc1ccc(N2CCN(C(=O)c3c(-c4ccccc4)noc3C)CC2)cc1
    i, -0.2
> CCc1ccc(CCC(=O)Nc2ccc(C)c(C)c2)o1
    i, -2.9
> O=C(Nc1ccccc1)C1=C(O)CC(c2ccoc2)CC1=Nc1ccccc1 (stereo not given)
    i, 3.8
> CC1CN(CC(O)COc2ccc(C(C)C)cc2)CC(C)O1 (stereo not given)
    i, 0.4
> Cc1cc(Br)ccc1NC(=O)CNC(=O)CSc1n[nH]c(N)n1
    i, 1.9
> CCn1cnc2sc(C(=O)N3CCN(Cc4ccc5c(c4)OCO5)CC3)c(C)c2c1=O
    ., -0.8
> CCC(=O)N1CCc2cc(Br)cc(S(=O)(=O)C3(C(=O)OC)CC3)c21
    i, 8.9
> CCOC(=O)c1[nH]c2ccccc2c1NC(=O)C1CCCCC1
    ., 0.5

By substructure, the compounds so far containing a CF3 group.
Each structure is followed by: VCAM-1 up, Proteasome disasm
> Cc1nn(C)c(C)c1CN(C)C(=O)c1cc2n(n1)C(C(F)(F)F)CC(c1cccs1)N2 (stereo not given)
    ., 0.6
> NC(=O)NC(=O)CSc1cccc(C(F)(F)F)c1
    i, -1.7

Other structures:
Each structure is followed by: VCAM-1 up, Proteasome disasm
> CCCN(c1ccc(OCC)cc1)S(=O)(=O)c1ccc2c(c1)CCN2C(=O)CCC(=O)O
    ., 16.1
> Cc1cc(NC(=O)c2noc3c2CCCC3)no1
    ., -0.1
> COC(=O)c1cn(CCOc2ccccc2)c2ccccc12
    ., -2.4
> COc1ccc(CNC(=O)CS(=O)Cc2nc(-c3ccccc3C)oc2C)cc1 (stereo not given)
    ., 5.7
> CN(C)c1ccc(NC(=O)CSc2nc3c(c(=O)[nH]2)CCCC3)cc1
    ., 1.9
> CCN(CC)CCCNS(=O)(=O)c1ccc(OC)cc1
    i, -1.9
> N#CC1=C(N)Oc2n[nH]c(-c3ccncc3)c2C1c1ccsc1 (stereo not given)
    i, -5.3
> Cc1cc(C)c(OCC(=O)Nc2cccc(O)c2)cc1C
    i, 1.3
> CCCn1c(NCc2ccc(N(C)C)cc2)nc2ccccc21
    ., 0.7
> CC[C@H](C)C(=O)O[C@H]1C[C@@H](C)C=C2C=C[C@H](C)[C@H](CC[C@@H]3C[C@@H](O)CC(=O)O3)[C@H]21
    i, -0.7
> COC(=O)CC1SC(=O)NC1=Nc1ccc(C)cc1 (stereo not given)
    ., -0.3
> CCCCn1c(CNC(=O)CCC)nc2ccccc21
    i, -0.3
> O=C(O)CSCCC(=O)Nc1ccc(F)cc1
    ., -0.3
> COc1cccc(NC(=O)N2CCC(C(N)=O)(N3CCCCC3)CC2)c1
    ., -0.2
> OCCNC1=NCCN1
    i, 1.1
> CCCCCn1c(=O)[nH]c2cc(C(=O)NCCN3CCOCC3)ccc2c1=O
    i, -1.1
> CC(=O)c1ccc(N2CCN(C(=O)c3ccc(NC(=O)C4CCCO4)cc3)CC2)cc1 (stereo not given)
    ., -0.4
> Cc1cccc(N2CCN(c3nc4ccc(Cl)cc4n4cnnc34)CC2)c1C
    ., -0.2
> CCC(C)C(NC(=O)OC(C)(C)C)C(=O)NC(CC(C)C)C(N)=O (stereo not given)
    i, -1.2
> CC1CCC(NC(=O)Cn2cc3c(n2)CCCC3)CC1 (stereo not given)
    ., 8.2
> COC(=O)C1C2C=CC3(CN(c4cccc(Cl)c4)C(=O)C13)O2 (stereo not given)
    ., 0.1
> Nc1nnc(-c2cccc(Cl)c2Cl)c(N)n1
    i, 1.1
> O=C1CCCN1CN1CCCCC1
    ., 0.2
> COc1cc(-c2noc(-c3cccc(Cl)c3)n2)cc(OC)c1OC
    i, 0.5
> O=C(CCS(=O)(=O)c1ccc(Br)cc1)N1CCN(c2ccccc2)CC1
    ., 0.2
> COc1ccc(N(CC(=O)N2c3ccccc3CC2C)S(=O)(=O)c2c(C)noc2C)cc1 (stereo not given)
    i, 0.5
> COc1cc(C(Nc2ccccn2)c2ccc3ccc(C)nc3c2O)cc(OC)c1O (stereo not given)
    ., -1.6
> CC1CCCCC1NC(=O)Cn1ncc2ccccc21 (stereo not given)
    i, -0.5
> O=C(CC(C(=O)N1CCc2ccccc21)n1ccnc1)N1CCc2ccccc2C1 (stereo not given)
    ., -0.5
> CC(=O)c1c(C)[nH]c(C(=O)NCCN2CCC(C)CC2)c1C
    ., -0.5
> CCc1ccc(OCc2ccc(C(=O)NCc3ccccn3)o2)cc1
    ., 6.2
> O=C(CSc1nnc(COc2ccc(Cl)cc2)o1)N1CCN(c2ccccc2)CC1
    i, -0.9
> COc1ccccc1NC(=O)CSc1nc2ccccc2c(=O)n1CCNC(C)=O
    ., -3.3
> CCCCN(C)C(=O)CCCCn1c(=O)[nH]c2cc(OCC)c(OCC)cc2c1=O
    ., -1.8
> CCN(Cc1ccccc1)C(=O)CSc1nc(C)cc(C)c1C#N
    ., -0.3
> COc1cc(C)c(C#N)c(OC)n1
    ., 0.8
> O=C(Cn1cnc2c(nnn2Cc2ccccc2F)c1=O)NCC1CCCO1 (stereo not given)
    ., -0.4
> O=C(OCc1nnc(-c2ccccc2)o1)c1ccc2ccccc2n1
    i, 6.8
> CCOc1ccc(NC(=O)COc2nsnc2N2CCCCC2)cc1
    ., 4.0
> COc1ccc2c(c1OC)C(=O)N1c3cccc(Cl)c3C(=O)OC21 (stereo not given)
    ., -1.1
> CCOC(=O)N1CCN(C(=O)c2ccc(CNS(=O)(=O)c3ccc(OC)cc3)cc2)CC1
    ., 0.3
> O=C(NCc1ccc(Cl)cc1)c1noc2c1CCCC2
    ., 0.2
> Cc1c(C(=O)Nc2ccc3c(c2)OCO3)sc2nc(-c3ccccc3)cn12
    ., -0.1
> O=S(=O)(NCc1cccs1)c1cccc2cccnc12
    ., -0.4
> CCN(CC)C(=O)c1c[nH]c2ccc(S(=O)(=O)Nc3cc(C)cc(C)c3)cc2c1=O
    ., -0.5
> Cc1ccc(NC(=O)COS(=O)c2ccc(C)cc2)cc1 (stereo not given)
    i, 0.4
> COc1ccc(C2C(C(N)=O)=C(C)Nc3nc(-c4ccccc4)nn32)cc1OC (stereo not given)
    ., 0.0
> COc1cccc2cc(C(=O)N3CCc4ccccc43)c(=O)oc12
    i, -0.1
> N#Cc1c(SCC(=O)N2CCOCC2)nsc1SCC(=O)N1CCOCC1
    i, 0.7
> COc1ccc2c(c1)c1nc(SCC(C)C)n(CCO)c(=O)c1n2C
    ., 0.4
> c1ccc(CCn2nnnc2C(c2cccs2)N2CCOCC2)cc1 (stereo not given)
    i, 12.8
> COc1cccc(NC(=O)c2cn(C)c(=O)c3cc(OC)c(OC)cc23)c1
    ., -0.2
> Cc1cc(C)cc(-n2cc3c(=O)n(C)c(=O)n(C)c3c2)c1
    ., -0.2
> CCOC(=O)CSc1nc(N)c(C#N)c(-c2ccc(OCC)cc2)c1C#N
    ., 0.4
> Cc1ccc(CNC(=O)CCS(=O)(=O)c2cccc3nonc23)cc1
    ., 0.1
> O=C(O)c1ccc(-c2ccc(O)c(F)c2)cc1
    i, 0.5
> CC1CCN(C(=O)c2ccc(NC(=O)C3CCCO3)cc2)CC1 (stereo not given)
    ., 1.1
> CCCCc1nc(NCCN2CCOCC2)c(C#N)c2c1COC(C)(C)C2
    i, 1.1
> Cc1nc2ccc(NC(=O)N3CCSCC3)cc2s1
    i, 0.7

Arranged by formula weight (smallest number first): part of the list above.
Each structure is followed by: VCAM-1 up, Proteasome disasm
> O=S(=O)(NCc1cccs1)c1cccc2cccnc12
    ., -0.4
> CC1CCN(C(=O)c2ccc(NC(=O)C3CCCO3)cc2)CC1 (stereo not given)
    ., 1.1
> Cc1ccc(CNC(=O)CCS(=O)(=O)c2cccc3nonc23)cc1
    ., 0.1
> COc1ccc2c(c1)c1nc(SCC(C)C)n(CCO)c(=O)c1n2C
    ., 0.4
> CCN(CC)C(=O)c1c[nH]c2ccc(S(=O)(=O)Nc3cc(C)cc(C)c3)cc2c1=O
    ., -0.5
> N#Cc1c(SCC(=O)N2CCOCC2)nsc1SCC(=O)N1CCOCC1
    i, 0.7

A portion of the library; the hit share may differ from the screen's.
